High-throughput results from PubChem.
PrP UTR inh: inhibition of PrP 5' UTR reporter expression; hit rate 0.35% among 340,000; cell-based PrP 5' UTR mRNA reporter, plate reader; AID 488862, 2010; inhibition, % (test concentration not listed);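 active means every replicate at 50% or more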;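 further: 0 = median of the neutral control wells; tested in H4 reporter cells; numbers are from one replicate; inactives centre near -14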
ugtP null kill: growth inhibition of ugtP-null S. aureus, primary screen, RN4220 ugtP deletion, OD600 | 16 h; some inactives read as strong as hits | hit rate 0.54% among 330,000 | AID 1259309, 2017 | growth inhibition, % (no concentration beside the values);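 active means z-score under -3 and OD600 up to 0.15 on both plates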;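 further: plate controls were untreated wells for no effect and antibiotic for full effect; wells of about 80 µL received 100 nL stock; the first replicate is given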
Sa RN4220 lethal: growth inhibition of S. aureus RN4220, primary screen, OD600. 16 h. inhibition, % (no concentration beside the values). hit rate 0.33% among 330,000. AID 1259311, 2017;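 active means z-score of -3 or lower and OD600 up to 0.18 on both plates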;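 further: plate controls were untreated cells for no effect and reference antibiotic for full effect; stock transfer was 100 nL into about 80 µL; one replicate is shown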
Autofluor counter: compound fluorescence in toxin protease inhibitor counterscreen | AID 624483 | hit rate 3.1% among 360,000 | compound autofluorescence counterscreen, microsphere flow cytometry; active compounds read high | fluorescence intensity (test concentration not listed);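 active means at least 3 SD above the mean of all compounds, about 16000 in these data; inconclusive means too few beads counted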;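 further: 100 nL of 1 mM stock went into each well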
Mtb hypoxia inh: PubChem AID 1159583; M. tuberculosis hypoxia-regulated fluorescent reporter, fluorescence; fluorescence inhibition, % (concentration not given with the values); hit rate 0.1% among 300,000;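 active means 35 to 45% if threefold the growth effect, above 45% if 1.5-fold the growth effect; inactive means the rest, general growth blockers included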;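 further: wells of about 50 µL received 100 nL stock; 0% = vehicle wells and 100% = reference inhibitor wells; whole bacteria with a GFP reporter of the hypoxia response; strong numbers were not always called active; many hits fall short of the cut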
BJeLR lethal: MLPCN primary cell-based screen for lethality selective to Ras in HRASV12 cells; BJeLR (HRASV12) viability, CellTiter-Glo ATP luminescence, 48 h; reference of the scale not given here; inhibition, % (no concentration beside the values); hit rate 0.17% among 300,000;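 active means replicate mean above 50%; inconclusive means above 50% but judged a plate artefact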;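 further: 50 nL library stock added to about 25 µL; numbers are from one replicate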
Mtb hypoxia inh growth: second read-out of Mtb hypoxia inh, no call of its own (marks repeat the call); growth inhibition, %; measured here: M. tuberculosis growth (absorbance);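 0% = vehicle and 100% = reference antibiotic; read after six days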
An asterisk follows results filed as active; ? = inconclusive; . = no result given; & = joins results of further samples. Random draw from the library; overall some 4% were active at least once.

SMILES	PrP UTR inh	ugtP null kill	Sa RN4220 lethal	Autofluor counter	Mtb hypoxia inh	Mtb hypoxia inh growth	BJeLR lethal
CCOC(=O)c1nnn(CC(=O)Nc2ccccc2)c1C(=O)OCC	-19	3	2.0	2444	-4	0	-6
CCn1c(O)c(C=NCCc2c[nH]c3ccccc23)c(=O)[nH]c1=O	-22	-4	3.1	11125	0	10	1
O=C(Cc1n[nH]c(=O)[nH]c1=O)NN=Cc1ccccc1	.	5	1.3	.	20	6	.
CSCCC(=O)N1CCC(CCC(=O)NC2CC2)CC1	5	3	1.3	5645	-4	1	-9
O=[N+]([O-])OC1COC2C(O[N+](=O)[O-])COC12 (stereo not drawn)	.	-6	2.6	.	1	0	.
Cc1c(/C(O)=C2/C(=O)C(=O)N(Cc3cccnc3)C2c2ccccn2)cnn1-c1ccccc1 (stereo not drawn)	25	-4	2.5	5084	7	4	-4
COc1cccc(N2CCN(c3ccc4nnc(CCC(=O)Nc5ccc(F)cc5F)n4n3)CC2)c1	-6	8	2.2	4515	3	0	-1
CC(=O)N1c2ccccc2C(=O)C1N1CCCCC1 (stereo not drawn)	-21	13	20	2637	3	6	-10
O=C(Oc1ccc(Br)cc1C(=S)N1CCOCC1)c1cccc([N+](=O)[O-])c1	-8	13	5.4	4236	4	-2	3
COc1ccc(NC(=O)c2cc(S(=O)(=O)N3CCc4ccccc43)cn2C)c(OC)c1	1	.	.	4128	.	.	2
O=C(O)C1CCCCC1C(=O)N1CC=C(c2ccccc2)CC1 (stereo not drawn)	-4	.	.	2882	.	.	6
Cc1ccc(OCC(=O)NNC(=O)c2cccnc2)cc1C	-12	1	1.4	4110	-4	-2	-6
CN1CCN(CCCn2cnc3c(=O)oc4ccccc4c32)CC1	-18	-8	2.7	3875	0	9	-16
CCOC(=O)C1=C(C)NC(C)=C(C(=O)OCC)C1C(=O)OCC(=O)N1CCCCC1CC (stereo not drawn)	-10	4&-7	1.1&-2.8	3521&2780	12&-3	11&-2	-2
S=C(NCC1CCCO1)NC12CC3CC(CC(C3)C1)C2 (stereo not drawn)	-16	1	5.1	4801	9	3	-4
CNCCCc1[nH]nc(N)c1C#N	-8	10	-2.5	2910	-5	-3	1
O=C(CN1C(=O)S/C(=C\c2ccccc2)C1=O)NC1CCS(=O)(=O)C1 (stereo not drawn)	-8	-4	0.3	4677	0	2	4
O=S(=O)(Nc1ccc(Cl)cn1)c1cccs1	-12	3	5.2	3698	4	0	0
CSc1nc(C)c(C(=O)C[n+]2ccc(C)cc2)cc1C#N	3	5	6.2	4288	14	12	3
COc1ccc(C(=O)O/N=C(\N)c2ccc(OC)c(OC)c2)cc1	-60	0	5.3	3451	3	-6	22
Nn1c(SCC(=O)Nc2ccccc2F)nnc1C1CCCCC1	-12	9	5.5	4289	8	-5	0
CC1CCCC(NCC(O)COC(c2ccc(F)cc2)c2ccc(F)cc2)C1C (stereo not drawn)	-3	15	-3.3	5133	.	.	5
CCOC(=O)CNc1nc(Cl)c(C#N)s1	-8	2	3.2	3122	16	3	0
CC(C)Nc1nc(NC(C)C)nc(SCCOC(=O)Nc2ccc(Cl)cc2Cl)n1	-16	-31	-6.9	2589	-3	13	-1
CCCCC(c1nnnn1CC1CCCO1)N1CCN(c2nc3ccccc3s2)CC1 (stereo not drawn)	-7	-2	3.2	4870	.	.	.
COc1ccccc1Oc1c(C)oc2cc(OC(=O)c3ccco3)ccc2c1=O	-30	3	1.7	10262	7	16	.
COc1cccc(N2C(=O)C3C(C2=O)C2C=CC3C23CC3)c1 (stereo not drawn)	-15	1	1.9	4185	.	.	-1
COc1cc(C(C)=O)ccc1OCC(=O)OC(C)C(=O)c1ccc(F)cc1 (stereo not drawn)	-30	1	1.5	.	5	0	.
O=C(O)C1C2C=CC3(CN(Cc4ccco4)C(=O)C13)O2 (stereo not drawn)	-22	6	3.7	5527	.	.	-3
COc1ccc(CCNC(=O)CSc2ccccn2)cc1	-4	4	8.8	3982	-1	2	.
O=C(NCCC1=CCCCC1)c1cc(-c2ccncc2)nc2ccccc12	-9	-8	-1.4	4464	3	7	11
O=C(CC(Nc1ccc(F)cc1)c1ccccc1)c1ccccc1 (stereo not drawn)	-13	13	7.5	2059	17	16	-4
CCSc1nc(-c2ccccc2)c(-c2ccccc2)n1CC(O)CO (stereo not drawn)	-14	3	8.4	2053	-11	1	4
C/C(=N\Nc1ncc(Cl)cc1Cl)c1ccc(N2CCOCC2)cc1	-9	.	.	3762	.	.	3
COC(=O)CN1C(=O)C(O)(CC(=O)c2ccc(Br)cc2)c2ccccc21 (stereo not drawn)	-25	2	4.6	5126	.	.	-4
COc1ccccc1CNC(=O)C1CCN(S(=O)(=O)c2cccc3nonc23)CC1	-8	0	-1.2	3665	2	12	-3
Cc1ccc(S(=O)(=O)N2CCC(C(=O)N3CCc4ccccc43)CC2)cc1	-30	2	0.8	5486	-1	2	3
CCn1nc(C)c(NC(=O)c2ccc(Br)o2)c1C	-5	4	0.9	7079	-1	-6	-8
Cc1ccc2nc(N3CCC(C(=O)N4CCC5(CC4)OCCO5)CC3)sc2c1	-42	40	7.4	2611	11	3	-3
COC(=O)C1CCN(C(=O)C2CCN(C(=O)[C@H](C)NS(=O)(=O)c3ccc(C)cc3)CC2)CC1	-15	10	4.5	5175	.	.	-4
CCN1C(=O)c2ccccc2Sc2ccc(C(=O)NCCCN(CC(C)C)CC(C)C)cc21	5	3	0.0	4157	8	9	5
COc1cc(SC)ccc1C(=O)N1CCc2ccccc21	-11	4	2.6	3993	7	9	-4
CCSc1nnc(NC(=O)c2ccccc2)s1	-47	-4	14	2331	12	4	-4
O=C(Cc1coc2cc3c(cc12)CCC3)NC1CCCCCCC1	5	-8	1.7	8359	3	4	-1
Cc1nnc(SCC(=O)Nc2nccs2)n1N	-8	2	1.4	?	-5	-5	1
CC1CN(S(=O)(=O)c2cccc(C(=O)Nc3ccccc3N3CCOCC3)c2)CC(C)O1 (stereo not drawn)	-3	-1	1.9	?	5	4	.
CC(NC(=O)CN1CCOCC1)c1ccccc1 (stereo not drawn)	-28	8	2.7	4268	9	3	-2
Cc1cc(=O)n(-c2ccccc2)n1-c1ccccc1	-19	13	3.4	9216	3	-1	2
Cc1ccc(OS(=O)(=O)c2cn(C)c(=O)n(C)c2=O)cc1C	-7	6	2.6	5053	12	2	-2
Cc1ccc(C)c(NC(=O)COC(=O)c2cc(=O)c3ccccc3o2)c1	-12	5	3.4	.	2	16	.
CC(=O)Nc1cccc(NC(=S)Nc2ccc(F)c(Cl)c2)c1	-9	-20	-5.9	4044	5	7	6
N#Cc1ccc(CN2CCN(CC(=O)NCCc3ccc(Cl)cc3Cl)CC2)cc1	-3	-12	0.4	6016	-9	13	4
COc1ccc(S(=O)(=O)N2CCOC23CCN(S(=O)(=O)c2ccc([N+](=O)[O-])cc2)CC3)cc1	-8	-1	2.6	6250	8	6	-2
O=C(C[n+]1cc(-c2ccc(Cl)cc2)n2c1CCCCC2)c1ccccc1	-18	-10	0.9	5490	-3	10	9
CC(C(=O)NC1CCCc2ccccc21)N1C(=O)C2CCCCC2C1=O (stereo not drawn)	-4	0	1.6	3992	-9	11	.
O=C(c1ccc(Cn2c(=S)[nH]c3ccccc3c2=O)cc1)N1CCN(c2ccccn2)CC1	-20	4	-16	4232	8	5	8
COc1ccc([N+](=O)[O-])cc1NC(=O)Cc1c(Cl)cccc1Cl	-14	-1	1.8	2614	-4	-3	-3
CC(C)OCCCNC(=O)Cn1nc(-c2ccccc2)ccc1=O	-12	-1	-3.2	12523	-2	6	-9
CCc1noc(C)c1C(=O)Oc1ccc(N(C)S(=O)(=O)c2ccc(C)cc2)cc1	-13	-4	9.7	7959	0	5	.
COc1ccc(N=CC2CCCCC2=O)c([N+](=O)[O-])c1 (stereo not drawn)	-60	6	8.8	3464	.	.	.
(listing goes on)
SMILES	PrP UTR inh	ugtP null kill	Sa RN4220 lethal	Autofluor counter	Mtb hypoxia inh	Mtb hypoxia inh growth	BJeLR lethal
COc1ccc(OC)c(C=Nn2c(-c3n[nH]c4c3CCC4)n[nH]c2=S)c1	.	0	4.0	.	19	1	.
O=C(Oc1ccc(Cl)c2cccnc12)c1ccco1	1	5	91*	2989	13	11	2
CCCCOC(=O)c1ccc(S(N)(=O)=O)o1	-34	5	3.0	2736	1	7	8
CCC(C)C(NC(=O)C1CCC(C)CC1)C(=O)NCc1ccco1 (stereo not drawn)	-28	0	-0.2	5699	1	-2	-6
Cc1cc(C(F)(F)F)nn1CC(=O)Nc1cccnc1	-15	3	10	3260	9	9	9
CCOc1ccccc1CN1CCNC(=O)C1CC(=O)NC1CCCCCCC1 (stereo not drawn)	-11	2	1.9	4830	6	0	5
Cc1ccc(SCc2[nH]nc3c2C2(C(=O)Nc4ccc(F)cc42)C(C#N)=C(N)O3)cc1 (stereo not drawn)	-21	-20	9.1	9243	3	8	-1
CN(C)S(=O)(=O)c1ccc(Cl)c(NC(=O)COC(=O)CNC(=O)c2ccco2)c1	-12	2	-4.3	3395	2	3	-7
Cc1cc(C)n(S(=O)(=O)c2ccc(F)cc2)n1	-22	4	2.9	4515	2	-2	-10
CCO/C=N/c1c(C#N)c(CC#N)nn1-c1ccccc1	-30	.	.	9398	.	.	-2
O=c1[nH]c(=O)n(C2CCCCCC2)c(O)c1C=NCc1ccc(F)cc1	-10	-6	1.2	?	.	.	9
Cc1ccc(NC(=O)CCNC(=O)c2ccc(Cl)cc2)cc1C	-2	15	6.7	4510	-4	-7	-8
CCCCC(=O)Nc1cc(NC(=O)CC)ccc1Cl	-17	3	1.5	4024	.	.	-1
COc1ccccc1CNC(=O)CCCc1ccccc1	-19	11	6.3	2477	11	6	-17
CC1=C(C(=O)Nc2ccccc2)C(c2cccs2)NC(=O)N1 (stereo not drawn)	-38	7	0.1	4183	16	8	-17

Filtered by structure: the compounds so far with fluorine
SMILES	PrP UTR inh	ugtP null kill	Sa RN4220 lethal	Autofluor counter	Mtb hypoxia inh	Mtb hypoxia inh growth	BJeLR lethal
COc1cccc(N2CCN(c3ccc4nnc(CCC(=O)Nc5ccc(F)cc5F)n4n3)CC2)c1	-6	8	2.2	4515	3	0	-1
Nn1c(SCC(=O)Nc2ccccc2F)nnc1C1CCCCC1	-12	9	5.5	4289	8	-5	0
CC1CCCC(NCC(O)COC(c2ccc(F)cc2)c2ccc(F)cc2)C1C (stereo not drawn)	-3	15	-3.3	5133	.	.	5
COc1cc(C(C)=O)ccc1OCC(=O)OC(C)C(=O)c1ccc(F)cc1 (stereo not drawn)	-30	1	1.5	.	5	0	.
O=C(CC(Nc1ccc(F)cc1)c1ccccc1)c1ccccc1 (stereo not drawn)	-13	13	7.5	2059	17	16	-4
CC(=O)Nc1cccc(NC(=S)Nc2ccc(F)c(Cl)c2)c1	-9	-20	-5.9	4044	5	7	6
Cc1cc(C(F)(F)F)nn1CC(=O)Nc1cccnc1	-15	3	10	3260	9	9	9
Cc1ccc(SCc2[nH]nc3c2C2(C(=O)Nc4ccc(F)cc42)C(C#N)=C(N)O3)cc1 (stereo not drawn)	-21	-20	9.1	9243	3	8	-1
Cc1cc(C)n(S(=O)(=O)c2ccc(F)cc2)n1	-22	4	2.9	4515	2	-2	-10
O=c1[nH]c(=O)n(C2CCCCCC2)c(O)c1C=NCc1ccc(F)cc1	-10	-6	1.2	?	.	.	9
